IMPase Li cell = IMPase inhibition in cells with lithium potentiation; CHO-M1 cells, IP1 TR-FRET (IP-One), carbachol + lithium; Potency, µM (top dose mostly 59.4 µM), for the others: at the highest dose activity, negative = IMPase inhibition, hits mostly inhibitors; 210,000 tested, 0.35% active; AID 1457;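 also: IP1 builds up when IMPase is blocked and the TR-FRET signal falls; potency is read from the fitted curve at half-maximal effect; plate controls were basal vehicle for no effect and high inhibitor control for full effect; nearly all actives have a fitted effect of over 50% in size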
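CHO-M1, 2000 cells/well, 16–30 h culture; cpd + low Li+, 30 min 37C; lysis with d2-IP1/Eu-anti-IP1 Ab, 10 min RT; TR-FRET 665/620 ratio and 620 channel; AC50 via Hill.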
LMNA splice mod = changes lamin A minigene splicing in HeLa cells; HeLa LMNA splicing GFP/RFP minigene ratio, 48 h; AID 1487; 200,000 tested, 0.01% active; Potency, µM (doses to about 46.1 µM), for inactives: top-dose ratio change, negative = inhibition, actives largely listed as inhibitors; active = well fitted inhibition curve with a large enough effect in the signal ratio, with a control signal flat, not every such curve was filed as active; inconclusive = small, poorly fitted or top-dose-only effect, or effect the other way, or a change in a side signal; the % refers to the signal ratio; also: potency is read from the fitted curve at half-maximal effect; % is scaled to controls: 0 for no effect and ±100 for the full control effect
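Read-out is the ratio of GFP to DsRed2 object intensity, acquired by 488 nm laser-scanning cytometry on HeLa lamin A-EGFP minigene reporter cells. Compound incubation 48 hrs at 37 °C in Opti-MEM with 2% FBS; DMSO 0.5% final.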
HTT aggregate = reduces HttQ103-GFP aggregates in PC12 cells | PC12 HttQ103-GFP aggregates, Acumen cytometry, 40 h | Potency, µM (titrated, usually from 46.1 µM), for inactives: at the top dose activity change, negative = inhibition, usual class: inhibitors | 220,000 tested, 1.1% active | AID 1688; also: potency is read from the fitted curve at half-maximal effect; % is scaled to controls: 0 for no effect and ±100 for the full control effect; nearly all actives have a fitted effect of over 60% in size
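Quantitative HTS on tebufenozide-induced (100 nM) PC12 cells stably expressing polyQ103 Huntingtin exon 1–GFP. Reduction of bright GFP aggregates, detected by laser scanning cytometry after lysis, identified actives across the titration.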
Epigenetic derep = epigenetic control regulation, reporter derepression; murine LDR cells, GFP reporter derepression, 30 h; Potency, µM (titrated, usually from 53.9 µM), for the others: at the highest dose GFP activation, most hits filed as activators; 280,000 tested, 0.2% active; AID 1865; also: potency is read from the fitted curve at half-maximal effect; % of control where 0% means no effect; nearly all actives have a fitted effect of over 60% in size
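In this reporter-derepression format, murine cells bearing a silenced integrated CMV-GFP locus incubate with test compound (30 h, 37 C), then are washed and imaged; fluorescent objects of 20–120 um count as induced cells.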
KinaseGlo FLuc = counter-screen: inhibitors of Kinase-Glo firefly luciferase | Kinase-Glo luciferase, ATP luminescence, 8 min | AID 1379 | Potency, µM (series often up to 38.3 µM), for inactives: top-dose activity change, negative = inhibition, hits mostly inhibitors | Q27757 | 200,000 tested, 0.28% active; also: potency is read from the fitted curve at half-maximal effect; % is scaled to controls: 0 for no effect and ±100 for the full control effect; nearly all actives have a fitted effect of over 60% in size
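Compound is pinned into ATP-containing buffer (10 uM ATP, imidazole pH 7.2, 7 mM MgCl2). Kinase-Glo luciferase reagent is then added. Light output is recorded following an 8-min room-temperature incubation.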
CBFb-RUNX1 inh = blocks binding between human CBF-beta and RUNX1; AlphaScreen CBFb-His/RUNX1-biotin binding, biochemical; 230,000 tested, under 10 active; Q01196+Q13951; Potency, µM (titrated, usually from 59.8 µM), inactives show at the highest dose activity, negative = inhibition, usual class: inhibitors; also: % of control where 0% means no effect
Target sequence (Q01196 whole entry, looked up): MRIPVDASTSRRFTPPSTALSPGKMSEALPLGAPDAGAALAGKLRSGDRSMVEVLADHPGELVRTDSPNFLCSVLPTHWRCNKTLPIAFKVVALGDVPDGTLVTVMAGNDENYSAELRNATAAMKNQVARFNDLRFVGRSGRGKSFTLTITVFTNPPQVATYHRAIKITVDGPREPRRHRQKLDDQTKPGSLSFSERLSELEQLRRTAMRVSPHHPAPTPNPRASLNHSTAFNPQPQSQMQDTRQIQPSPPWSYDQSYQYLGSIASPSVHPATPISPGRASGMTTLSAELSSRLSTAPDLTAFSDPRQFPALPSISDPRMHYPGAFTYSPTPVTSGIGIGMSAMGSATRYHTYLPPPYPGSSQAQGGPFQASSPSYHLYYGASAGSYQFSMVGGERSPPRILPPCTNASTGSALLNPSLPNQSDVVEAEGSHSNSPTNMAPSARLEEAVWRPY
Target sequence (Q13951 whole entry, looked up): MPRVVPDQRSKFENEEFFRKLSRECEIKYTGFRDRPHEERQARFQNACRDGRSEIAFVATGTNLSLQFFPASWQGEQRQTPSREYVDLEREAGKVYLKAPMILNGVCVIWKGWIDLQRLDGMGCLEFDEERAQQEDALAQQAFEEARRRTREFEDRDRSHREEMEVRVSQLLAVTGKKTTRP
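Interaction loss through any mechanism counts as activity. Pre-formed complex of His-CBF-beta and biotin-RUNX1 (30 nM apiece) is incubated with compound 15 min, then with 50 ng nickel and 50 ng streptavidin beads for 90 min before AlphaScreen detection.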
* hit, by the source's call; ? = inconclusive; . = not tested or not shown; & = joins results of further samples; [ ] = remark or other dose. Unless noted, calls follow the shape of the dose curve; as a rule, active = well fitted curve in the direction sought with a large enough effect; inconclusive = small, poorly fitted or top-dose-only effect, or another doubt; inactive = no such curve, though single readings can be large; an effect the other way counts as inactive or inconclusive.

molecule	KinaseGlo FLuc	CBFb-RUNX1 inh	LMNA splice mod	Epigenetic derep	IMPase Li cell	HTT aggregate
O=C(NC1(C(F)(F)F)C(=O)Nc2c1c(=O)[nH]c(=O)n2-c1ccc(F)cc1)c1cccnc1 (stereo not drawn)	-2%	-1%	-7%	1.9%	-13%[38.3 µM]	-6%
CCOc1cc(C)c(Cl)cc1S(=O)(=O)NCc1ccc2c(c1)OCO2	-2%	5%	-1%	-0.4%	6%[38.3 µM]	-3%
CC(C)(C)c1ccc(C(=O)N2CCC(C(=O)NCCC3=CCCCC3)CC2)cc1	-2%	-5%	25%	-2.3%	0%[38.3 µM]	-14%
Clc1ccc(-c2cc3ccccc3nc2N2CCCC2)cc1	4%	18%	-14%	-1.0%	16%[38.3 µM]	-16%
CCOC(=O)N1CCN(C(=S)NC2CCCC2)CC1	3%	0%	32%[46 µM]	-2.5%	2%	19%
COc1ccc(NC(=O)Nc2c(C)n(C)n(-c3ccccc3)c2=O)cc1	1%	4%	-5%	0.8%	28%[38.3 µM]	-9%
O=C(Nn1c(O)c(C=C2N=c3ccccc3=N2)sc1=S)c1ccccc1Cl	-2%	?	-2%	-1.2%	-6%[38.3 µM]	1%
CCOC(=O)N1CCN(C(=O)c2oc3ccc(S(=O)(=O)N4CC(C)CC(C)C4)cc3c2C)CC1 (stereo not drawn)	-2%	-2%	6%[0.0737 µM]	-0.9%	16%[38.3 µM]	?
Cc1cc(C)c(C(=O)N2CCCC(CNC(=O)C3(c4ccc(Cl)cc4)CC3)C2)c(=O)[nH]1 (stereo not drawn)	-4%	3%	.	-1.3%	25%	-18%[9.22 µM]
O=C(O)c1ccc(/C=C(\c2nc3ccccc3[nH]2)c2nc3ccccc3s2)cc1	.	0%	.	0.0%	.	-18%[9.22 µM]
Cc1cc(C)c2[nH]c(=O)c(CN(Cc3ccccc3)C(=S)NCCCN(C)C)cc2c1	1%	4%	.	5.6%	12%	-9%[9.22 µM]
COc1ccc(NC(=O)CN2CCN(CC(=O)Nc3cc(OC)cc(OC)c3)CC2)cc1	0%	-3%	-8%	-0.9%	9%[38.3 µM]	2%
CC(C)CSc1nc(N2CCOCC2)c2c(c1C#N)CC(C)(C)SC2	-5%	6%	?	-6.8%	9%[38.3 µM]	-2%
CCOc1ncccc1C(=O)N1CCN(C(c2ccccc2)c2ccccc2)CC1	1%	-5%	?	-2.2%	30%	-24%
O=C(Nc1cccc(-c2nnc(-c3ccccc3)o2)c1)C1CC1	-2%	-5%	.	-1.9%[10.1 µM]	-2%	21%[9.22 µM]
C=CCc1ccc(OCC(O)CN2CCC(Cc3ccccc3)CC2)c(OC)c1 (stereo not drawn)	-3%	-2%	?	1.0%	17%[38.3 µM]	13%
CC1(C)Cc2c(cnn2-c2ccccc2)-c2c1c1ccccc1n2CC(O)CCl (stereo not drawn)	2%	-7%	?	2.4%	2%	?
COc1c(F)c(F)c(C(=O)Nc2cccc(Cl)c2N2CCOCC2)c(F)c1F	-1%	5%	13%	-0.8%	1%[38.3 µM]	-16%
S=C(Sc1ccc(Cl)cc1)Sc1ccc(Cl)cc1	.	13%	.	-1.0%	.	?
CCC(=O)N1N=C(c2c(-c3ccccc3)c3cc(Cl)ccc3[nH]c2=O)CC1c1ccco1 (stereo not drawn)	.	-4%	-10%	1.7%	.	?
CC(C)=CCCC(C)CN1CCC(N2CCC(C(=O)NC(C)C)CC2)CC1 (stereo not drawn)	.	1%	.	-0.6%	.	?
COCCNC(=S)N/N=C1\CC(C)CC(C)(C)C1 (stereo not drawn)	1%	-7%	?	?	9%	?
CC(=O)N1CCN(c2ccccc2NC(=O)COc2ccccc2C)CC1	-3%	4%	14%[46 µM]	-0.1%	19%	.
CC(c1ccccc1)C1CC(=O)N(Cc2ccco2)C1=O (stereo not drawn)	1%	5%	13%	-1.1%	14%[38.3 µM]	-10%
O=C(O)c1c2c(nc3ccccc13)/C(=C/c1ccc(O)cc1)CCC2	1%	7%	23%[46 µM]	0.5%	10%	3%
O=C(NC1CCCC1)C(c1ccccc1)N(C(=O)c1ccno1)c1ccccc1 (stereo not drawn)	2%	8%	11%	-1.0%	11%	7%
COCCn1c(=NC(=O)CSCC(=O)Nc2cc(C)on2)sc2cc(C(=O)OC)ccc21	-1%	8%	0%	0.1%	-4%	9%
CC(C)C[C@H](NC(=O)c1nc[nH]c1C(=O)N1CCc2ccccc2C1)C(=O)OCc1ccccc1	.	8%	.	-1.1%	.	-8%[9.22 µM]
CCC(=O)Nc1cccc(-c2nnc(-c3cccc(NC(=O)CC)c3)o2)c1	4%	3%	-7%	-1.4%	-4%[38.3 µM]	10%
O=C(Nc1cccc(C(F)(F)F)c1)NC1CCN(S(=O)(=O)c2ccc(F)cc2)CC1	-3%	2%	-22%	-1.1%	35%[38.3 µM]	?
CCOC(=O)c1cc(C(=O)OCC)c(=O)[nH]c1N1CCCC1	1%	-10%	.	-1.2%	-6%	-16%
Cc1sc(NC(=O)c2ccco2)c(C(c2cccnc2)N2CCCC2)c1C (stereo not drawn)	-5%	-8%	-10%	0.0%	7%[38.3 µM]	-30%
COC(=O)c1ccc(C(=O)OC)c(NC(=O)N2c3ccccc3Sc3ccccc32)c1	4%	3%	-6%	-2.2%	5%	13%
COc1ccc(CCNC(=O)CSc2nc3[nH]ncc3c(=O)n2-c2ccc(C)c(Cl)c2)cc1OC	6%	-6%	.	2.6%	0%	-16%
CCc1ccc(C2=Nn3c(nnc3-c3cccs3)SC2)cc1	-5%	-10%	7%	-0.8%	7%[38.3 µM]	?
CCOC(=O)COc1ccc2nsnc2c1Cl	-3%	5%	6%	0.9%	-14%[38.3 µM]	23%
CCN(CC)C(=O)CSc1nc(-c2ccc(C)cc2)nc2c1COC(C)(C)C2	4%	3%	13%	12%	31%[activator][38.3 µM]	15%[9.22 µM]
CCn1cc(C(=O)NC2CCC(C)CC2)c(=O)c2cc(S(=O)(=O)N3CCCCC3)ccc21 (stereo not drawn)	-2%	-2%	10%	1.5%	-2%[38.3 µM]	?
C=C(C)Cc1c(C)c(C#N)c2nc3ccccc3n2c1N1CCCCC1	-1%	12%	6%	-1.0%	17%[38.3 µM]	-11%
CCCCOc1ccc(/C(O)=C2/C(=O)C(=O)N(Cc3cccnc3)C2c2ccncc2)c(C)c1 (stereo not drawn)	4%	8%	5%	-1.0%	10µM*	5%
CCC(=O)Oc1ccc(C(=O)Nc2ccc3c(c2)C(=O)N(C2CCCCC2)C3=O)cc1	2%	1%	?	-5.6%	36%[38.3 µM]	-29%
CCOc1ccc2[nH]c(=O)c(CN(Cc3cccs3)Cc3nnnn3C(C)(C)C)cc2c1	-5%	6%	?	0.3%	5%[38.3 µM]	-12%
COc1ccc(OC)c(NC(=O)CSc2nnc(N)s2)c1	6%	-5%	4%	0.0%	8%[38.3 µM]	-5%
O=c1cc(N2CCCCC2)c(-c2ccccc2)nn1Cc1ccccc1Cl	-2%	1%	?	-1.3%	12%[38.3 µM]	?
CC(C)c1nc(N2CCN(C(=O)c3ccco3)CC2)c2c3c(sc2n1)CCCC3	0%	-22%	-4%	-9.5%	20%[38.3 µM]	-15%
FC(F)Oc1ccc(/C=N/c2c(-c3ccc(OC(F)F)cc3)nc3n2CCS3)cc1	3%	-1%	15%	-0.8%	20%	-15%
CC(=O)c1ccc(-c2ccccc2[C@H]2[C@H]3C=CC[C@@H](C)[C@@H]3C(=O)N2Cc2ccccc2)cc1	.	2%	.	2.5%	.	?
C=CCN1C(=O)/C(=C2/Sc3ccc(OC)cc3N2C)SC1=Nc1cccc(O)c1	2%	-1%	.	10µM*	?	-5%[9.22 µM]
c1coc(Cn2nnnc2CN2CCN(C3CCCCC3)CC2)c1	-3%	6%	2%	0.0%	-2%[38.3 µM]	16%
COc1cccc(N/C(SCc2cccc([N+](=O)[O-])c2)=C(/C#N)C(=O)NCc2cccs2)c1	2%	-17%	?	2.1%	4%	19%
O=C(/C=C/c1cccc([N+](=O)[O-])c1)c1ccc2c(c1)OCCO2	-3%	-1%	?	7.5%	14%	25%
Cc1ccc2nc(CSc3nnc(-c4ccco4)o3)cc(=O)n2c1	.	-6%	1%	-7.2%	.	-4%
C=CCn1c(CCNC(=O)c2ccccc2F)nnc1SCC(=O)Nc1ccc(OC)cc1	1%	-4%	.	2.0%	5%	11%
CCN(CC)C(=O)c1[nH]cnc1C(=O)N[C@@H](CC(C)C)C(=O)OCc1ccccc1	.	5%	.	-0.5%	-4%	5%[9.22 µM]
Cc1nc(N2CCN(Cc3nc4ccccc4[nH]3)CC2)c2oc3ccccc3c2n1	-2%	0%	?	-1.5%	18%[38.3 µM]	-20%
CC(C)C(C)NC(=O)COc1ccc(Sc2ccc(OCC(=O)NC(C)C(C)C)cc2)cc1 (stereo not drawn)	-1%	-20%	?	6.9%	-11%	28%

The list continues:
molecule	KinaseGlo FLuc	CBFb-RUNX1 inh	LMNA splice mod	Epigenetic derep	IMPase Li cell	HTT aggregate
CC(C)Cc1c(O)nc(SCCN2CCOCC2)[nH]c1=O	.	3%	12%	-5.5%	.	17%
COCCn1c(=N)c(C(=O)NCc2ccco2)cc2c(=O)n3ccccc3nc21	-4%	0%	-2%	-0.7%	11%[38.3 µM]	2%
CCCNC(=O)COC(=O)c1cc(C)nc2ccccc12	-2%	13%	-3%[46 µM]	-1.6%	-4%	-3%
CC(C)c1ccc(OCC(=O)NC(=S)Nc2ccc3c4c(cccc24)CC3)cc1	7%	-5%	7%	-1.8%	13µM*	4%
C/C(N)=C(/C#N)C(=O)CSc1nc2cc(Cl)ccc2c(=O)n1Cc1ccco1	-1%	-27%	25%[46 µM]	1.2%	6%	-17%
COc1ccccc1CN1C(=O)CN(C2CCCCCC2)C(=O)C1c1ccc(F)cc1 (stereo not drawn)	-7%	5%	1%[46 µM]	3.3%&-2.3%	13%[38.3 µM]	4%
Nc1c(C(=O)NCc2ccco2)c2nc3ccccc3nc2n1CCc1ccccc1F	-4%	?	-22%	7.9%	26%[38.3 µM]	?

This is a subset; rates above refer to the full screens.
